# KCNQ2 pot = enhances the rat KCNQ2 potassium channel | O88943 | CHO-K1 KCNQ2, FluxOR thallium flux fluorescence; stronger effect = higher value | B-score at 10 µM | hit rate 0.54% among 310,000 | AID 2239;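 active = fluorescence ratio B-score at least 3 SD of library B-scores, with initial fluorescence B-score within 3 SD, cut at about 5.3 in these data; same plate scores as AID 2156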;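 note: B-score of peak minus minimum over baseline fluorescence ratio after K+ and Tl+ stimulus; positive B-score means potentiation of KCNQ2 with more thallium influx and brighter signal; only the inactives scoring about 0 or higher are listed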
# Target sequence (O88943 whole entry, looked up): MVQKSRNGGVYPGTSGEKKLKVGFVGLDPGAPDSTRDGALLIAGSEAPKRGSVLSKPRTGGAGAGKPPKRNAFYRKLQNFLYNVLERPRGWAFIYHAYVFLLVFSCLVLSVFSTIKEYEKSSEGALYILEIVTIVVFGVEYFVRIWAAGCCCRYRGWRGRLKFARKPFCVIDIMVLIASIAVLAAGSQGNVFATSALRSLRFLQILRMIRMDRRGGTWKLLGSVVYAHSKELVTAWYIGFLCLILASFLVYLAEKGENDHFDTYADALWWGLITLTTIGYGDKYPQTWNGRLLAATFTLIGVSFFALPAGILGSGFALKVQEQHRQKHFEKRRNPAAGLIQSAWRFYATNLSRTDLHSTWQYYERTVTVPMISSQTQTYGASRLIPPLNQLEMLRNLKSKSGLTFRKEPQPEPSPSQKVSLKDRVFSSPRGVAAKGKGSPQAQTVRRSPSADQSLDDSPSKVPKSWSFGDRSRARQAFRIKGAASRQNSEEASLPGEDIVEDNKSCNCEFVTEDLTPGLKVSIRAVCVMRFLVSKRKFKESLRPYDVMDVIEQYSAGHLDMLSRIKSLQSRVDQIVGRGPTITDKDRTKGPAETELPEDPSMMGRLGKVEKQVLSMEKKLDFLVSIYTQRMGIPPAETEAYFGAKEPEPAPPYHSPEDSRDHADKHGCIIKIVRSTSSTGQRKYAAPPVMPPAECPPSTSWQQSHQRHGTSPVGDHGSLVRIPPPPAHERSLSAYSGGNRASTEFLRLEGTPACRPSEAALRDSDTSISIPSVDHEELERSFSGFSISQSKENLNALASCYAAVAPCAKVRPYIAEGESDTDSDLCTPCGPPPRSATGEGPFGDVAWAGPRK
# KCNQ2 pot baseline = second read-out of KCNQ2 pot, no call of its own (marks repeat the call); B-score; compound at 10 µM; measured here: initial fluorescence intensity artifact check;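 brightness before thallium and not channel activity; 0 = typical well and far values either way flag optical interference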
# An asterisk follows results filed as active. Not all compounds are listed (hit frequency here may not be typical).
SMILES,KCNQ2 pot,KCNQ2 pot baseline
Cc1cccc(NC(=O)CN2C(=O)c3ccccc3C2=O)c1C,1.5,-1.8
Cc1ccc(CNC(=O)c2ccc3c(c2)NC(=O)C(N2CCOCC2)S3)cc1 (configuration not stated),1.3,0.78
COc1ccc(C(=O)COC(=O)CN2C(=O)NC(C)(C)C2=O)cc1OC,1.3,-0.68
COC(=O)CSc1nc(NC(C)C)nc(N2CCOCC2)n1,0.09,-1.2
Cc1cc(N=Nc2c(O)c3ccccc3[nH]c2=O)ccc1N=Nc1ccc(C(=O)N(C)C)cc1,1,-1.2
COc1ccc(S(=O)(=O)NCc2ccc(F)cc2)cc1OC,0.69,-1.9
COC(=O)c1ccc(Nc2cc(C)nc3nc(C)nn23)cc1,0.65,0.85
O=C1CC(c2ccccc2Br)c2cc3c(cc2N1)CCC3 (configuration not stated),0.8,0.11
O=C1c2ccccc2N2C(=O)c3ccccc3C2N1Cc1ccco1 (configuration not stated),0.13,0.06
CCNc1nc(SCC(=O)OC)nc(N(C)C)n1,1.6,0.01
Cc1ccc(C(=O)OCc2c(C)noc2C)cc1NC(=O)c1ccco1,0.39,-0.34
O=C(C1CCCO1)N1CCC(O)(c2ccccc2)CC1 (configuration not stated),0.7,-1.4
Cc1cccc(NC(=O)c2cccc(OC(=S)N3CCOCC3)c2)c1,1.6,0.41
COc1ccc(C2N3CC4(C)CN2CC(C)(C3)C4=O)cc1OC (configuration not stated),0.06,0.8
CC1=CC(c2ccccc2)n2nc(N3C(=O)C4CC=CCC4C3=O)nc2N1 (configuration not stated),0.47,-1.1
Cc1ccc(-c2cc(C(F)F)nc(NCc3cccnc3)n2)cc1,0.89,-0.42
Cc1cccc(NC(=S)NC(=O)/C=C/c2ccco2)c1,1.4,-2.7
O=C(N/N=C/c1ccccc1)C(=O)N/N=C/c1ccccc1,0.06,-1.2
CCN(CC)S(=O)(=O)c1cc(NC(=O)COC(=O)c2sc3ccccc3c2Cl)ccc1C,1.1,-0.04
Cc1ccc(CNC(=O)CN(C)S(=O)(=O)c2cccs2)cc1,0.15,1.2
O=C(Nc1ccc2c(c1)OCO2)c1cc(C2CC2)on1,0.05,1.8
O=S(=O)(c1ccc(C(F)(F)F)cc1)N1CCN(CCc2ccccc2)CC1,0.95,-0.34
COc1ccc(N2C(=NC(=O)CC3CCCCC3)SC3CS(=O)(=O)CC32)cc1 (configuration not stated),0.71,-2.6
CN(C)C(=S)Nc1ccc2c(c1)OCCO2,0.02,0.42
CCCCc1nc2cc(C(=O)N(C)C3CCOCC3)ccc2o1,0.06,-0.68
O=C(Cc1ccc([N+](=O)[O-])cc1)OCc1c(F)cccc1Cl,0.22,-2.2
COCCOC1CCN(C(=O)C2CCC(=O)N(CCc3ccc(OC)cc3)C2)CC1 (configuration not stated),0.28,0.05
Cc1sc2ncn3c(C)nnc3c2c1C,0.02,0.23
O=C(Nc1nnc(-c2ccncc2)o1)c1ccccc1,0.96,-2.4
Nn1c(SC/C=C/c2ccccc2)nnc1-c1cccnc1,0.17,1.7
CCC(=O)c1ccc(OCC(O)Cn2nc(C)c(C(C)=O)c2C)cc1 (configuration not stated),0.25,0.43
CC12CCC(=O)N1C(C(=O)NCCN1C(=O)S/C(=C\c3ccccc3F)C1=O)CS2 (configuration not stated),0.31,0.75
CC1(C)NC(=O)N(CC(O)CN2CCCCC2)C1=O (configuration not stated),0.26,0.97
COc1ccc(N2CCN(C(=O)c3ccc(N4CCCCS4(=O)=O)cc3)CC2)cc1,0.48,-0.39
O=C(CSc1nc(-c2ccco2)cc(C(F)(F)F)n1)NCCCn1ccnc1,0.54,-0.28
CN(C)C(=O)c1cc(-c2ccccc2)no1,0.91,-0.29
COc1ccc(-c2noc(CSc3nc(N)c(-c4ccccc4)c(=O)[nH]3)n2)cc1OC,0.77,0.58
O=C(Nc1ccccc1O)c1nc(Cl)ccc1Cl,0.37,0.92
O=S1(=O)N=C(Nc2ccc(O)c(CN3CCCCC3)c2)c2ccccc21,0.77,0.16
O=C(Nc1ccccc1F)c1oc2ccccc2c1NC(=O)C1CC1,0.88,-1.6
CCOC(=O)CNc1ncc(C(F)(F)F)cc1Cl,0.28,1.9
CCCOc1ccc(CSC2=NCCN2)cc1[N+](=O)[O-],0.42,0.54
O=S(=O)(Cc1ccccc1)Nn1cnnc1,0.62,-0.93
O=C(COc1ccc(F)cc1)c1c(O)cc(O)cc1O,0.85,-0.65
COc1cc(O)c(C(CC(=O)N2CCOCC2)c2ccc3c(c2)OCO3)c(OC)c1 (configuration not stated),0.03,-0.7
COC(=O)C1=C(N)Oc2cc(C)n(Cc3ccncc3)c(=O)c2C1c1cccnc1 (configuration not stated),0.27,0.33
CC(=O)c1cccc(NC(=O)CN2CCN(Cc3ccccc3)CC2)c1,0.25,-1.2
O=C(O)Cn1c(P(=O)(O)c2ccccc2)nc2ccccc21,0.59,-1.1
CCc1nc2c(c(=O)c3ccccc3n2C)c(=O)n1-c1ccc(F)cc1,0.09,-0.23
Nc1cc(Cl)ccc1Oc1ccccc1,0.28,0.05
COc1ccc(Br)cc1CN1CCN(C(=O)c2ccc(OC)c(OC)c2)CC1,0.03,-0.62
CC(C(=O)O)n1nc(-c2ccccc2)c2ccccc21 (configuration not stated),0.03,2.4
COc1ccc(Cl)cc1NC(=O)Cn1cccc1,0.31,-0.13
CCN1CCN(CC(=O)Nc2cc(C(F)(F)F)ccc2OCCOC)CC1,1.1,-0.25
CCOc1ccccc1NC(=O)Nn1cnnc1,0.31,-1.1
COc1ccc(C(=O)N/C(=C\c2cccc3ccccc23)C(=O)N2CCN(C)CC2)cc1OC,0.49,-0.68
CC(=O)Nc1ccc(S(=O)(=O)NCc2ccc(C(=O)N3CCOCC3)cc2)cc1,2.1,0.03
CCc1ccc(NC(=O)c2cccnc2)cc1,0.36,-0.67
COc1ccc(C(CNC(=O)c2cccc(S(=O)(=O)Nc3ccccc3Cl)c2)N2CCOCC2)cc1 (configuration not stated),0.18,0.11
Cc1ccccc1CC(=O)NCCN1CCCCC1,1.4,0.37

# The list continues:
SMILES,KCNQ2 pot,KCNQ2 pot baseline
O=C(N/N=C/c1cc(Br)cc(Br)c1O)c1ccncc1,2.1,1.8
CCN(CC)c1ccc(Nc2cc3n(c(=O)n2)CCc2cc(OC)c(OC)cc2-3)cc1,4,-0.19
O=C(NCc1ccco1)c1cc(-c2ccccc2)nc2ccccc12,0.91,-0.49
Cc1cccc(OCC(=O)Nc2ccc(N3CCN(C(=O)c4ccccc4)CC3)cc2)c1C,0.54,-0.93
O=C(NCc1cccnc1)c1cccn2c(=O)c3sccc3nc12,0.04,0.15
CCCc1cc(CNC(=O)C2CCC(=O)N(Cc3ccccc3F)C2)on1 (configuration not stated),0.52,0.19
CC(C)(C)c1ccc(C(=O)Nc2ccc(C(=O)NCc3cccnc3)cc2)cc1,0.49,-0.71
COCCNC(=O)/C(C#N)=C/c1cc(C)n(C2CCCCC2)c1C,2.5,-0.46
O=C(NC1CCCCC1)N1CCc2ccccc2C1,0.34,1.2
COc1ccc(CNC(=O)C/C(C)=N/NC(=O)Cc2ccc(OC)c(OC)c2)cc1,1.1,0.56
Cc1cc(C)nc(SCC(=O)Nc2ncc3c(n2)CCCC3=O)n1,0.92,0.63
O=C(COc1ccccc1[N+](=O)[O-])N/N=C/c1ccc(OC(=O)c2ccco2)cc1,0.28,-0.02
O=C(Cc1ccc(O)cc1)N/N=C/c1cccnc1,0.01,-0.55
CCOC(=O)C1CCN(c2c(NCCCN(CC)c3ccccc3)c(=O)c2=O)CC1,0.68,-1.3
Cc1ccc(C)c(N2CCN(C(=O)Cc3c(C(=O)O)[nH]c4ccc(Cl)cc34)CC2)c1,1.1,-1.7
CCOc1ccc(CN(C)C(C)C(=O)NCCc2ccc(F)cc2)cc1 (configuration not stated),0.06,0.09
CCc1c(C(=O)NCCc2cccc(C)c2)[nH]c(C)c1C(C)=O,0.08,-1.5
COC(=O)[C@H](CC(C)C)NC(=O)N1CCCCC1,1.3,-0.54
COc1cc2c(cc1OC)CN(Cc1ccccc1)CC2,0.09,0.13
CCOC(=O)N1CCN(C(=O)c2ccc3c(c2)ncn3C2CCCC2)CC1,0.1,1.2
COc1cc(/C=N/NC(=O)C2CCN(CC(O)COCc3ccccc3)CC2)ccc1O (configuration not stated),0.05,0.66
Cc1ccc(-c2nc(SCC(=O)Nc3ccccc3OC(F)F)c3c(C)c(C(=O)O)sc3n2)cc1,0.8,0.05
COc1ccc(CCNC(=O)CN2C(=O)c3cccc4cccc(c34)C2=O)cc1OC,0.01,0.13
CC(=O)C[C@H]1c2cc(F)ccc2S(=O)(=O)N1c1ccc(N(C)C)cc1,0.58,-0.98
O=C(Nc1ccc(N2CCOCC2)cc1)C1CC(=O)N(c2ccccc2)C1 (configuration not stated),1.2,-1.3
Cc1c(NC(=S)NC(=O)c2ccccc2Cl)c(=O)n(-c2ccccc2)n1C,1.9,-1.6
Cc1ccc2sc(C)[n+](CCO)c2c1,0.94,-1.4
CCC(=O)Nc1cc(C(=O)O)ccc1S(=O)(=O)c1ccc(C)cc1,0.8,1.9
COCCN(Cc1cc2ccc(C)c(C)c2nc1Cl)C(=O)N1CCOCC1,1.5,0.35
COCCn1c(SCC(=O)N2CCOCC2)nc2c(c1=O)SCC2,1.6,0.85

# One compound at a time, as listed above. Screens in order: KCNQ2 pot	KCNQ2 pot baseline
# COC(=O)[C@H](CC(C)C)NC(=O)N1CCCCC1 is entered as 1.3	-0.54
# CCc1c(C(=O)NCCc2cccc(C)c2)[nH]c(C)c1C(C)=O is entered as 0.08	-1.5
# CCOC(=O)N1CCN(C(=O)c2ccc3c(c2)ncn3C2CCCC2)CC1 is entered as 0.1	1.2
# COc1cc2c(cc1OC)CN(Cc1ccccc1)CC2 is entered as 0.09	0.13
# Cc1c(NC(=S)NC(=O)c2ccccc2Cl)c(=O)n(-c2ccccc2)n1C is entered as 1.9	-1.6

# Next part:
SMILES,KCNQ2 pot,KCNQ2 pot baseline
C/C(N)=C(/C#N)C(=O)COC(=O)c1cc(-c2ccc(Br)cc2)nc2ccccc12,0.07,1.3
O=C(NCCN1CCN(c2ccccc2F)CC1)C1CC(=O)N(C2CCCC2)C1 (configuration not stated),1.7,-0.59
CNC(=O)c1ccc(Nc2nnc(-c3ccc(O)cc3)c3ccccc23)cc1,1.1,-1.7
C=CCN(c1ccccc1)S(=O)(=O)c1cccc(C(=O)NC2CCN(Cc3ccccc3)CC2)c1,0.03,0.02
Cc1ncoc1C(=O)N1CCCC(C(=O)c2cccc(OC(C)C)c2)C1 (configuration not stated),0.02,2.4
Cc1c(Nc2ncccc2C(=O)O)cccc1C(F)(F)F,0.81,-2.1
O=C(Nc1ccccc1C(=O)O)c1cncc(Br)c1,2.8,2.1
Nc1nc(SCC(=O)Nc2ccc(Oc3ccccc3)cc2)n[nH]1,4,-0.67
O=C(Nc1nccs1)c1cc(S(=O)(=O)N2CCOCC2)ccc1Cl,0.02,0.89
CC1CCN(c2ccc(S(=O)(=O)Nc3cc(C(=O)O)cc(C(=O)O)c3)cc2[N+](=O)[O-])CC1,0.46,1.6
Cc1onc(-c2ccccc2)c1C(=O)Nc1nnc(C(C)(C)C)s1,2,0.86
C/C(=C\c1ccc(F)cc1)C(=O)c1c(C)cc(C)[nH]c1=O,0.51,1.1
C=CCOc1ccc(C2NC(=S)NC(C)=C2C(=O)c2ccccc2)cc1OC (configuration not stated),0.05,0.99
Cc1ccc(O)c(C=Nc2ccc3[nH]ncc3c2)c1,0.33,-0.68
Cc1cc(N2CCN(C)CC2)nc2ccc(NC(=O)CCC(=O)NCCC(C)C)cc12,0.64,-1.1

# A draw from above in order of number of heavy atoms, high to low.
SMILES,KCNQ2 pot,KCNQ2 pot baseline
O=C(NCCN1CCN(c2ccccc2F)CC1)C1CC(=O)N(C2CCCC2)C1 (configuration not stated),1.7,-0.59
C=CCOc1ccc(C2NC(=S)NC(C)=C2C(=O)c2ccccc2)cc1OC (configuration not stated),0.05,0.99
Nc1nc(SCC(=O)Nc2ccc(Oc3ccccc3)cc2)n[nH]1,4,-0.67
C/C(=C\c1ccc(F)cc1)C(=O)c1c(C)cc(C)[nH]c1=O,0.51,1.1
O=C(Nc1ccccc1C(=O)O)c1cncc(Br)c1,2.8,2.1

# Additional records:
SMILES,KCNQ2 pot,KCNQ2 pot baseline
O=C(Nc1nccs1)OCc1ccccc1,0.81,1.3
Cc1nc2ccccc2c2oc(C(=O)NCCCN3CC(C)CC(C)C3)cc12 (configuration not stated),0.04,-0.05
CN(N)C(=S)Nc1ccc(Cl)cc1,0.01,0.68
CCCCc1c(O)nc(SC2CC(=O)N(c3ccc(C(=O)OCC)cc3)C2=O)[nH]c1=O (configuration not stated),0.15,-1
C/C(Nc1ccc(C)cc1)=C(/C#N)C(N)=O,1.6,2.1
COc1ccc(/C=N/Nc2nnc(Cc3ccccc3)c(=O)[nH]2)cc1,1.5,-0.81
CC(=O)C1=C(O)C(=O)N(Cc2cccnc2)C1c1ccc(O)cc1 (configuration not stated),0.37,0.9
Nc1nn(-c2ccccc2)c(N)c1N=Nc1ccccc1F,1.9,-1.3
Cc1cc(C)c(C(=O)CC2(O)C(=O)Nc3ccccc32)cc1C (configuration not stated),0.62,-0.75
CC1CCC(NS(=O)(=O)c2ccc(N3CCCC3=O)cc2)CC1 (configuration not stated),0.69,-1.1
C=CCNC(=S)NNC(=O)CC12CC3CC(CC(C3)C1)C2,0.58,0.69
Cc1ccc2nc(SCC(=O)Nc3cc(C)on3)nc(=O)n2c1,0.24,1.1
Nc1ccc(C(=O)N/N=C\c2ccc(OC(=O)c3ccccc3Cl)cc2)cc1,0.05,-1.4
Cc1cc(CN(C)C(=O)CC2C(=O)NCCN2Cc2ccc(F)c(F)c2)on1 (configuration not stated),0.77,-1.3

# Source: PubChem BioAssay (Johns Hopkins Ion Channel Center)
